# Mtb bLac sens: beta-lactam sensitization of Mtb H37Rv, H37Rv; inhibition, % at 25 µM; actives 0.27% (n = 330,000); M. tuberculosis H37Rv growth with meropenem, percent inhibition; hits of this screen are not shown here;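 active = about 74% or more and at least 40 points above the plate without the antibiotic, then above 30% in a dose series; inconclusive = first-round hits that could not be retested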;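 also: growth measured after seven days incubation then overnight dye step; 0% = bacteria only wells and 100% = bacteria with antibiotic; twin plates without the antibiotic show which effects depend on it; some results filed as inactive read as strong as hits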
# Arbovirus inh: antivirals against arbovirus infection, primary screen, cell-based, full library, 10K replicate subset | arbovirus infection cell-based antiviral screen | actives 0.37% (n = 200,000) | inhibition, % at 10 µM;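 active = inhibition from about 30%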;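 also: bluetongue infection of BSR cells; cell survival read as ATP light after 72 h; 0% = infected wells without compound and 100% = uninfected wells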
# RecA intein inh: Mtb RecA intein splicing inhibitors, primary screen, biochemical, fluorescence, HTS; inhibition, %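 (about 9 µM by stock and volumes)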; Protein RecA (Mycobacterium tuberculosis (strain ATCC 25618 / H37Rv)), P9WHJ3; cell-free RecA intein splicing; actives 0.75% (n = 290,000); in the data active = inhibition above about 30%; inconclusive = no clear call, values can overlap the other calls;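 also: 0% = vehicle wells and 100% = reference inhibitor control wells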
# Target sequence (P9WHJ3 whole entry, looked up): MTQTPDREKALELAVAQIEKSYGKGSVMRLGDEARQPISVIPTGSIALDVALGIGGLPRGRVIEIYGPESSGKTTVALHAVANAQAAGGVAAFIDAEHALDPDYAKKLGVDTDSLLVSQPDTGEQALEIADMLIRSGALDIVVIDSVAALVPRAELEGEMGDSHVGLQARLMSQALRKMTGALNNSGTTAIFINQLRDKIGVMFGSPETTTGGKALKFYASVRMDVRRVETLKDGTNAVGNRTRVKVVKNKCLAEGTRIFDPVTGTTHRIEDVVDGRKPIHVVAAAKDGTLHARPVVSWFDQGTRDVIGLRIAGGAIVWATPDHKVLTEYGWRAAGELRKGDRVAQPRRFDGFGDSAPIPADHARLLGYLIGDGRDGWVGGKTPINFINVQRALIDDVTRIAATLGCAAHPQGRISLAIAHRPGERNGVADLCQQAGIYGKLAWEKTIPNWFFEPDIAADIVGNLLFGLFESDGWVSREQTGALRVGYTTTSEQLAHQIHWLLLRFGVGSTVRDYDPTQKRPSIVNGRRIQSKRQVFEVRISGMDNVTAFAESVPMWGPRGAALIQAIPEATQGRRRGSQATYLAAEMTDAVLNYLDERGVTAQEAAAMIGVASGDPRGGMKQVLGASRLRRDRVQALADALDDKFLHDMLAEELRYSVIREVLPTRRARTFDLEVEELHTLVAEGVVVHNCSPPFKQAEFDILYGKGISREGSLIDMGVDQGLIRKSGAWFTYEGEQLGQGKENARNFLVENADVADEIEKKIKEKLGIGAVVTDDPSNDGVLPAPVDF
# Mtb H37Rv: M. tuberculosis H37Rv growth inhibitors, H37Rv strain (AID 1626). inhibition, % at 10 µM, or IC50 in µM where a hit was titrated. M. tuberculosis H37Rv growth inhibition; higher % means a stronger effect. actives 0.95% (n = 220,000);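 active = confirmed in a dose series; inconclusive = inhibition above 80% but not taken into the dose series; inactive = below 80% or under 30% at every dose of the series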;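 also: bacteria incubated seven days before Alamar blue readout; 0% = bacteria only wells and 100% = bacteria with antibiotic wells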
# YopH PTP inh: YopH tyrosine phosphatase inhibitors, primary screen, biochemical, fluorescence Ex485/Em525. YopH tyrosine phosphatase [Yersinia enterocolitica]. AID 898, 2007. actives 0.16% (n = 140,000). inhibition, %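 (about 10 µM by stock and volumes)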;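 active = inhibition of 50% or more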;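 also: controls were vehicle for no effect and minimum signal wells for full effect; inactives centre near -20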
# Arbovirus inh repeat: further read-out of Arbovirus inh, marked with its call; inhibition, %; measured here: 10K subset replicate screen; many hits read low in the repeat;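 first of two repeat runs on a subset; 0% = infected and 100% = uninfected wells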
# * = called active by the depositor; ? = inconclusive; nt = not tested or not shown; & = joins results of further samples.
SMILES,Mtb bLac sens,Arbovirus inh,RecA intein inh,Mtb H37Rv,YopH PTP inh,others
O=C(SCC(O)C(O)CS)c1cccs1 (stereo unspecified),-11.9,nt,5.3,2.3%,nt,
Cc1ccc(C(=O)N2CCN(c3ccccc3Cl)CC2)cc1[N+](=O)[O-],9.1,9.8,7.6,6.1%,nt,
O=C(NC1CCCC1)c1cccc(Oc2ccccc2)c1,-4.7,0.0,2.1,13.0%,nt,
CN(CC(=O)Nc1cccc([N+](=O)[O-])c1)S(=O)(=O)c1ccccc1,-9.5,2.5,-1.0,6.3%,nt,
O=C(O)CC(NC(=O)CC(c1ccccc1)c1ccccc1)c1cccc([N+](=O)[O-])c1 (stereo unspecified),-2.2,nt,2.0,nt,nt,
O=C(CNC(=S)NC(=O)C1CCCCC1)c1ccccc1,0.5,-13.7,-1.4,1.1%,-2.9,
Cc1ccccc1-n1c2nc(=O)n(C)c(=O)c-2cc2ccccc21,-10.9,nt,-201.7,1.0%,nt,
CCCOc1ccc(N2C(=O)CC(N3CCN(C(=O)c4ccco4)CC3)C2=O)cc1 (stereo unspecified),5.9,12.9,1.4,-7.0%,-42.7,
Cc1ccc(NC(=O)CN2C(=O)S/C(=C\c3cc(C)n(C)c3C)C2=O)cc1,9.3,-10.0,-6.7,-11.6%,-18.2,
COc1ccccc1/C=N/NC(=O)C1=NNC(c2ccccc2)(c2ccccc2)C1,-3.7,-0.6,13.3,nt,-20.5,
Cc1cc(C)n2nc(SCC(=O)N3CCC4(CC3)OCCO4)nc2n1,-19.9,9.3,0.2,2.2%,-5.7,
CCOC(=O)C1=C(C)N=c2s/c(=C\c3ccc(OCC(=O)O)cc3)c(=O)n2C1c1ccccc1 (stereo unspecified),2.7,nt,0.1,nt,nt,
Cc1ccc(CN(C)S(=O)(=O)c2c(C)noc2/C=C/N(C)C)cc1,11.8,nt,-0.8,nt,nt,
COc1cccc(NC(=O)CCSc2ccc(C)cc2)c1,0.6,1.4,1.9,-2.8%,-16.7,
CN(c1ccccc1C(=O)Nc1ccc2c(c1)OCO2)S(C)(=O)=O,-5.5,0.0,0.0,3.3%,-28.4,
O=C(NC1CCCCC1)N1CCN(C2CCCCC2)CC1,-14.1,6.6,-1.0,2.0%,-12.3,
Cn1nc(C(F)(F)F)c(/C=N/OC(=O)c2ccccc2Cl)c1SCc1ccc(Cl)cc1,-5.1,-21.3,-0.3,-5.7%,-19.6,
CCCOC(=O)c1ccc(NC(=O)c2cccc(S(=O)(=O)N3CCN(C(C)=O)CC3)c2)cc1,28.4,nt,2.1,nt,nt,
Nc1nc2n(n1)C(c1ccco1)CC(c1ccc(Cl)cc1)N2 (stereo unspecified),-5.7,4.2,2.1,-0.7%,-16.9,
CC1CN(C(=O)c2ccccc2C(=O)c2ncc[nH]2)CC(C)O1 (stereo unspecified),-1.5,2.4,1.4,3.4%,-42.8,Arbovirus inh repeat=8.7
COC(=O)[C@H](C)NC(=O)NC1CCCc2ccccc21 (stereo partly specified),44.5,-4.3,1.2,0.5%,-42.9,
Cc1cc(SCC(=O)c2ccccc2)nc(SCC(=O)c2ccccc2)n1,0.3,0.5,0.3,0.4%,-38.8,
CCc1cccc(CC)c1NC(=O)CCCSc1nc2ccccc2s1,3.3,-12.1,3.2,3.1%,-13.9,
COc1ccc(-c2ccc(=O)n(CC(=O)NC3CCc4ccccc43)n2)cc1OC (stereo unspecified),-0.5,1.7,0.6,-2.4%,nt,
CCc1ccc2nc(NC(=O)c3ccc(N4C(=O)CCC4=O)cc3)sc2c1,2.3,nt,0.5,-7.2%,nt,
# Next compounds follow.
SMILES,Mtb bLac sens,Arbovirus inh,RecA intein inh,Mtb H37Rv,YopH PTP inh,others
COC(CNC(=O)C1CCCN(S(=O)(=O)c2ccc3c(c2)oc(=O)n3C)C1)OC (stereo unspecified),-0.9,nt,-4.5,nt,nt,
CC1CCC(NC(=O)c2ccc3c(c2)OCO3)CC1 (stereo unspecified),-2.0,nt,2.1,nt,nt,
O=C1c2ccccc2C(=O)N1OCc1ccccc1,7.7,3.3,0.8,-11.0%,-12.7,
Cc1cccc2c1cnn2C(=O)CCC(=O)NCc1ccc(F)cc1,?,nt,1.4,nt,nt,
COc1ccccc1NC(=O)C1CCN(C(=O)c2ccco2)CC1,-9.6,nt,1.6,nt,nt,
CCOC(=O)N1CCN(C(=O)Cn2nc(C)c3sc4ccccc4c3c2=O)CC1,32.0,0.8,-1.1,-12.2%,-16.2,
CNC(=O)c1cnc(-c2ccccc2)nc1-c1ccccc1,-5.8,nt,3.2,nt,nt,
O=c1oc2ccccc2cc1-c1ccccc1,5.4,-2.3,1.0,-5.1%,nt,
Nc1nnc(SCC(=O)Nc2ccc(F)c(Cl)c2)n1-c1ccccc1,4.4,11.0,0.0,2.2%,6.7,
Cc1nonc1OCCNCc1c(C(=O)N(C)C)nc2ccc(Cl)cn12,3.9,1.9,-2.0,-0.4%,nt,
Cc1ccc(C)c(Cn2nc(-c3cc(C)ccc3C)ccc2=O)c1,15.0,nt,23.6,nt,nt,
CSc1nnc(CCCCCCCCc2nnc(SC)o2)o1,96.3,nt,-0.7,38.4%,nt,
C#CCOCCOCCOCCNc1nc(N2CCN(C(=O)[C@H]([C@@H](C)CC)n3cc([C@@H](N)CO)nn3)CC2)nc(N2CCN(C(=O)[C@H](Cc3ccc(O)cc3)n3cc([C@@H](N)C(C)CC)nn3)CC2)n1 (stereo partly specified),-1.7,3.3,1.1,3.5%,nt,
O=[N+]([O-])c1ccc(C(=Nc2cccc3ccccc23)N2CCOCC2)cc1,-14.3,2.0,6.3,-9.9%,3.1,
Cc1ccc(S(=O)(=O)Nc2ccc(Cl)cc2)cc1NC(=O)Cn1cnc2c1c(=O)n(C)c(=O)n2C,9.7,1.1,3.3,7.4%,-36.8,
CCC(=O)N1CCN(c2ccc(OC)cc2[N+](=O)[O-])CC1,-8.3,-0.9,-0.8,-1.3%,-33.8,
O=C(Nc1ccccc1N1CCN(c2ccccc2)CC1)c1ccccc1F,-8.8,-10.9,0.1,-4.8%,nt,
COc1ccc(OCC(O)CN2CCCCC2)cc1 (stereo unspecified),0.1,2.2,-4.8,-3.0%,-30.0,Arbovirus inh repeat=0.8
CCOCCOC(=O)c1[nH]c2c(c1C)C(=O)CC(c1ccc(N(C)C)cc1)C2 (stereo unspecified),?,-18.4,-2.0,64.3%,-14.5,
O=C(NCC(=O)N(Cc1ccco1)C(C(=O)NC1CCCCC1)c1cccnc1)c1ccco1 (stereo unspecified),-1.1,5.4,1.5,1.8%,-39.4,
COc1cc(C2c3sc(=O)[nH]c3SC3C4CCC(C4)C23)ccc1O (stereo unspecified),5.1,-1.4,5.3,1.9%,-0.9,
Clc1cccc(-c2cc3nc4c(c(N5CCNCC5)n3n2)CCCC4)c1,nt,-37.2,nt,76.6%,0.3,
Cc1ccc(NC(=O)CCSCCc2ccccn2)cc1,2.8,1.4,1.6,71.6%,nt,
CCCCCCC(=O)N/N=C/c1ccc(Br)cc1,98.1,-23.5,1.4,?,-25.8,
Cn1cnc2cc(NC(=O)c3cccs3)ccc21,-9.0,-2.2,0.0,4.7%,nt,
# The results go on.
SMILES,Mtb bLac sens,Arbovirus inh,RecA intein inh,Mtb H37Rv,YopH PTP inh,others
CCN1CCN(C(=O)C2CCCN(S(=O)(=O)c3cc(Cl)ccc3Cl)C2)CC1 (stereo unspecified),2.4,nt,1.3,nt,nt,
Nc1ccc(S(=O)(=O)Nc2ccc(C(=O)c3ccccc3)cc2)cc1,64.7,nt,1.9,nt,nt,
CN(C)Cc1nnnn1-c1cccc(-n2nnnc2CN(C)C)c1,3.4,nt,0.6,3.3%,nt,
CCn1c(=O)c(C(=O)CN2c3ccccc3CC2C)c(N)n(Cc2ccccc2)c1=O (stereo unspecified),4.0,-9.3,6.1,13.4%,-4.2,
Cc1ccc(-c2nnc(SCC(=O)N/N=C/c3ccccc3C(=O)O)n2-c2ccc(Cl)cc2)cc1,1.0,nt,0.3,-10.5%,nt,
O=C(Nc1cccc(F)c1)c1ccccc1,-10.2,-5.3,2.2,-11.2%,-8.5,
CC1=NN(C(C#N)c2ccc([N+](=O)[O-])cc2)C(C)(C)C1 (stereo unspecified),-3.7,nt,-0.1,10.9%,nt,
Cc1ccc(N2CC(NC(=O)C3CC3)CC2=O)cc1 (stereo unspecified),-6.9,nt,1.0,nt,nt,
O=C(Nc1cccc(NC(=O)c2ccccc2Cl)c1)c1cccs1,-2.9,nt,3.3,nt,nt,
Cc1nc2ccc([N+](=O)[O-])cc2c(=O)n1Cc1cccc(Br)c1,-1.6,nt,1.3,nt,nt,
Cc1n[nH]c(=S)n1-c1ccccc1,-4.7,nt,-1.4,-8.9%,nt,
CSc1nnc(-c2sc3cc(C(F)(F)F)cnc3c2-c2ccccc2)n1C,15.9,-10.6,2.3,5.5%,-15.6,
COc1ccc(NS(=O)(=O)c2ccc(O)c(C(=O)OCC(=O)NC3CCCCC3)c2)cc1,10.4,10.3,1.5,1.0%,nt,
O=C1CCCC2=C1C1(CCCCC1)N=C(Nc1nc3ccccc3s1)N2,-7.7,0.5,1.6,-5.5%,-18.6,
O=C(Nc1ccc(S(=O)(=O)Nc2ncccn2)cc1)C1COc2ccccc2O1 (stereo unspecified),-1.0,10.0,-1.6,-0.7%,nt,
O=C(CCn1cnnn1)N1CCCC(Nc2ccc(F)cc2)C1 (stereo unspecified),-2.1,nt,0.3,nt,nt,
COC(=O)COC(=O)c1ccccc1NC(=O)c1ccccc1,85.5,-7.5,0.0,19.8%,-22.9,
COC(=O)CNC(=O)CSc1nc2c(sc(=S)n2-c2ccccc2)c(=O)[nH]1,4.2,nt,-4.2,nt,nt,
Cc1ccccc1-n1nc(C)c2cc(C(=O)N3CCOCC3)sc21,-2.3,-7.0,0.6,-0.7%,-1.2,
COCC(C)(C)COS(N)(=O)=O,-18.9,nt,-0.5,nt,nt,
COC(=O)c1sc(S(=O)(=O)Nc2ccc(Br)cc2)c(C(=O)OC)c1C,-3.0,24.4,nt,6.9%,-25.4,
CC(=O)NS(=O)(=O)c1cccnc1Nc1cccc(Cl)c1,2.4,0.6,-0.3,-2.7%,-32.5,
Cc1ccc(NC(=S)N(Cc2ccc(Br)cc2)Cc2ccc(C(=O)O)cc2)cc1C,6.2,-11.0,8.6,-5.1%,nt,
CC1(c2ccccc2)CC(C)(C)N2C(=O)/C(=C3\SC(=S)NC3=O)c3cccc1c32 (stereo unspecified),-2.8,11.0,4.0,3.4%,-9.7,
Cc1ccc(S(=O)(=O)N2CCN(C(=O)CCC(=O)OCC(=O)Nc3cccc(C#N)c3)CC2)cc1,2.7,-1.6,-1.0,0.9%,-39.5,
CC1Cc2ccccc2N1C(=O)CN1CCc2ccccc2C1 (stereo unspecified),6.3,10.4,3.1,-13.1%,22.0,
COc1ccccc1-n1c(-c2ccccc2)c[n+]2c1CCc1ccccc1-2,11.7&2.1,-4.2&-12.1,3.5&0.9,8.5%&1.2%,nt,
CCc1ccc(NC(=O)Cn2c(=O)n(CCC(=O)NC3CCN(Cc4ccccc4)CC3)c(=O)c3ccccc32)cc1,-4.4,nt,-3.6,2.2%,nt,
CCCCN(CC)CCCNC(=O)c1cc2c(=O)n(C)c3ccccc3c2n1C,-1.1,20.0,0.3,-3.6%,-6.8,Arbovirus inh repeat=-10.7

# Screening results (PubChem)

# Some of the compounds tested; rates above refer to the full screens.
